Screening data: PubChem BioAssay, Broad Institute
UUG fidelity = alters start codon recognition fidelity in yeast | S. cerevisiae UUG-firefly luciferase reporter, luminescence/redox ratio | activity score, % at 18.7 µM | hit rate 0.13% among 350,000 | AID 602363;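 active = replicate mean at a twofold rise or more, about +100% in these data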;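 also: firefly luciferase made from a UUG start codon reports start codon fidelity; reporter light over untreated wells divided by growth signal over untreated wells; some hits fall short of that in this replicate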
* = called active by the depositor.

SMILES	UUG fidelity
O=C(C[C@H]1CC[C@@H]2[C@H](COC[C@H](O)CN2Cc2ccccc2)O1)N[C@H]1CCN(Cc2ccccc2)C1	-1.5
O=S(=O)(c1ccc(F)cc1)N1CC[C@H]2[C@H](CO)Nc3ccc(-c4ccccc4F)cc3[C@H]21	-4.3
Cc1noc(C)c1NC(=O)N(C)C[C@H]1Oc2c(NS(=O)(=O)c3cn(C)cn3)cccc2C(=O)N([C@H](C)CO)C[C@H]1C	8.1
CN(C)CC(=O)N1CCCCN2[C@H](CO)[C@@H](c3ccc(/C=C/c4ccccc4)cc3)[C@@H]2C1	11.1
COC(=O)C[C@@H]1CC[C@@H]2[C@@H](COc3ccc(NC(=O)c4cc(C)on4)cc3C(=O)N2C)O1	2.5
O=C(C[C@H]1CC[C@@H]2[C@H](COC[C@H](O)CN2C(=O)Nc2ccccc2)O1)NCc1ccccc1F	-0.6
Cc1ccc(-c2ccc([C@H]3[C@H](CO)N4CCCCN(C(=O)c5ccncc5)C[C@@H]34)cc2)cc1	-13.1
C/C=C/c1ccc([C@H]2[C@@H](CO)N3CCCCN(S(=O)(=O)c4ccc(OC)cc4)C[C@H]23)cc1	-2.2
COc1ccc(NC(=O)N(C)C[C@@H]2Oc3ccc(NC(=O)Nc4ccc5c(c4)OCO5)cc3C(=O)N([C@H](C)CO)C[C@H]2C)cc1	0.6
COCC(=O)N1C[C@H]2[C@@H](c3ccccc31)[C@H](CO)N2C(=O)C1CCCC1	-4.4
N#Cc1cccc(-c2ccc3c(c2)[C@@H]2[C@@H](CCN2Cc2ccncc2)[C@@H](CO)N3)c1	-6.8
COCC(=O)Nc1ccc2c(c1)C(=O)N(C)[C@@H]1CC[C@@H](CC(=O)NCCc3ccncc3)O[C@@H]1CO2	-15.0
Cc1noc(C)c1NC(=O)N(C)C[C@@H]1Oc2ccc(NS(=O)(=O)c3ccc(F)cc3)cc2C(=O)N([C@H](C)CO)C[C@H]1C	-8.9
O=C(Nc1cccc(Cl)c1)N1C[C@H]2[C@@H](c3ccccc31)[C@H](CO)N2CC1CCOCC1	19.5
O=C(C[C@@H]1CC[C@H]2[C@@H](COC[C@H](O)CN2Cc2cccc(C(F)(F)F)c2)O1)NCCc1ccccc1	17.3
C[C@@H]1CN([C@@H](C)CO)C(=O)Cc2cc(NC(=O)NC3CCCCC3)ccc2O[C@H]1CN(C)C	-9.6
Cc1cccc(S(=O)(=O)N2CCCCN3[C@H](C2)[C@@H](c2ccc(C#C[C@@H](C)O)cc2)[C@@H]3CO)c1	-3.4
C[C@@H]1CN([C@@H](C)CO)C(=O)c2cc(NC(=O)NC3CCCCC3)ccc2O[C@H]1CN(C)CC1CCCCC1	-5.5
C[C@H]1CN([C@@H](C)CO)C(=O)c2c(c3ccccc3n2C)-c2ccccc2CO[C@H]1CN(C)CC1CC1	-8.8
Cn1cnc(S(=O)(=O)N2CC[C@@H]3[C@H]2c2cc(C#Cc4ccccc4F)ccc2N[C@@H]3CO)c1	-7.7
O=C(C[C@@H]1CC[C@@H]2[C@H](COC[C@H](O)CN2S(=O)(=O)c2ccccc2F)O1)NCc1ccccc1Cl	24.3
C[C@H]1CN([C@@H](C)CO)C(=O)Cc2cc(N(C)C)ccc2O[C@@H]1CN(C)S(=O)(=O)c1ccc(F)cc1	-0.9
CO[C@@H]1CN(C)C(=O)c2ccc(NS(=O)(=O)c3ccccc3C)cc2OC[C@@H](C)N(S(C)(=O)=O)C[C@H]1C	5.4
Cc1ccc(S(=O)(=O)Nc2ccc3c(c2)C(=O)N([C@@H](C)CO)C[C@@H](C)[C@@H](CN(C)Cc2ccncc2)O3)cc1	-12.5
COc1ccc(C#Cc2ccc3c(c2)[C@@H]2[C@@H](CCN2Cc2nccs2)[C@@H](CO)N3)cc1	-15.0
CN(C)C(=O)c1ccc(-c2ccc3c(c2)[C@H]2[C@H](CCN2C(=O)Cc2ccccn2)[C@H](CO)N3C)cc1	3.1
CCCNC(=O)C[C@H]1CC[C@H]2[C@H](COc3ccc(NC(=O)c4ccc(C(F)(F)F)cc4)cc3C(=O)N2C)O1	-0.3
CO[C@@H]1CN(C)C(=O)c2ccc(NC(=O)C3CC3)cc2OC[C@@H](C)N(C(=O)C2CCOCC2)C[C@H]1C	23.5
CC=Cc1ccc2n(c1=O)C[C@H]1[C@H](CO)[C@@H](C(=O)Nc3ccc(-c4ccccc4)cc3)N(CC)[C@@H]21 (mixture of isomers)	-2.9
CO[C@@H]1CN(C)C(=O)c2ccc(NS(C)(=O)=O)cc2OC[C@H](C)N(C)C[C@@H]1C	1.1
C[C@H]1CN([C@@H](C)CO)C(=O)c2cc(NC(=O)Cc3cn(C)c4ccccc34)ccc2O[C@H]1CN(C)C(=O)Nc1ccc(F)cc1	7.7
O=C(C[C@H]1CC[C@H]2[C@@H](COC[C@@H](O)CN2C(=O)Nc2ccccc2)O1)NCc1ccccc1F	-7.7
C[C@H](CO)N1C[C@H](C)[C@H](CN(C)Cc2ccc(Cl)c(Cl)c2)Oc2c(NC(=O)C3CCOCC3)cccc2C1=O	6.5
O=C(Nc1cc(F)ccc1F)N1CCCCN2[C@H](CO)[C@@H](c3ccc(-c4ccncc4)cc3)[C@@H]2C1	5.6
CC(=O)N(C)C[C@H]1[C@H](c2ccc(-c3ccccc3)cc2)[C@@H](CO)N1C(=O)C1CC1	-5.3
O=C(C[C@@H]1CC[C@@H]2[C@H](COC[C@H](O)CN2Cc2ccccc2F)O1)N[C@H]1CCN(Cc2ccccc2)C1	0.4
CC(C)NC(=O)N1C[C@H]2[C@@H](c3ccccc31)[C@H](CO)N2Cc1ccccn1	-18.8
CC(C)C#Cc1ccc([C@@H]2[C@H](CO)N3CCCCN(C(=O)c4ccc5c(c4)OCO5)C[C@@H]23)cc1	35.9
C[C@@H]1CN([C@@H](C)CO)C(=O)c2ccccc2-c2ccccc2CO[C@H]1CN(C)C(=O)c1ccccc1	6.1
Cc1cccc(S(=O)(=O)N2CCCCN3[C@H](C2)[C@H](c2ccc(-c4cccnc4)cc2)[C@@H]3CO)c1	8.1
C[C@@H]1CN([C@H](C)CO)C(=O)c2cc(NC(=O)Nc3cccc4ccccc34)ccc2O[C@H]1CN(C)S(=O)(=O)c1cccs1	-1.2
C[C@H]1CN([C@@H](C)CO)C(=O)c2cccc(NS(=O)(=O)c3ccccc3)c2O[C@H]1CN(C)Cc1ccc2c(c1)OCO2	14.1
COCC(=O)Nc1ccc2c(c1)C(=O)N(C)[C@@H]1CC[C@H](CC(=O)NCC(F)(F)F)O[C@H]1CO2	35.7
CCC(=O)N1[C@@H]2CN(C(=O)Nc3cccc(Cl)c3)c3ccccc3[C@@H]2[C@@H]1CO	-10.0
C[C@@H]1CN([C@@H](C)CO)C(=O)c2cc(NC(=O)Nc3cccc4ccccc34)ccc2O[C@H]1CN(C)Cc1ccc(C(=O)O)cc1	2.3
O=C(c1ccncc1)N1C[C@H]2[C@@H](c3ccccc31)[C@@H](CO)N2C(=O)Nc1ccccc1Cl	-0.7
CC(=O)N(C[C@@H]1N[C@@H](CO)[C@@H]1c1ccc(-c2ccc(F)cc2)cc1)C(C)C	1.9
CC(C)(O)C#Cc1ccc([C@H]2[C@@H](CO)N3CCCCN(C(=O)c4cccc(F)c4)C[C@H]23)cc1	11.7

Another view of 10 compounds above:
| Compound | UUG fidelity |
| --- | --- |
| O=C(C[C@@H]1CC[C@H]2[C@@H](COC[C@H](O)CN2Cc2cccc(C(F)(F)F)c2)O1)NCCc1ccccc1 | 17.3 |
| C[C@@H]1CN([C@@H](C)CO)C(=O)Cc2cc(NC(=O)NC3CCCCC3)ccc2O[C@H]1CN(C)C | -9.6 |
| Cc1cccc(S(=O)(=O)N2CCCCN3[C@H](C2)[C@@H](c2ccc(C#C[C@@H](C)O)cc2)[C@@H]3CO)c1 | -3.4 |
| C[C@@H]1CN([C@@H](C)CO)C(=O)c2cc(NC(=O)NC3CCCCC3)ccc2O[C@H]1CN(C)CC1CCCCC1 | -5.5 |
| C[C@H]1CN([C@@H](C)CO)C(=O)c2c(c3ccccc3n2C)-c2ccccc2CO[C@H]1CN(C)CC1CC1 | -8.8 |
| Cn1cnc(S(=O)(=O)N2CC[C@@H]3[C@H]2c2cc(C#Cc4ccccc4F)ccc2N[C@@H]3CO)c1 | -7.7 |
| O=C(C[C@@H]1CC[C@@H]2[C@H](COC[C@H](O)CN2S(=O)(=O)c2ccccc2F)O1)NCc1ccccc1Cl | 24.3 |
| C[C@H]1CN([C@@H](C)CO)C(=O)Cc2cc(N(C)C)ccc2O[C@@H]1CN(C)S(=O)(=O)c1ccc(F)cc1 | -0.9 |
| CO[C@@H]1CN(C)C(=O)c2ccc(NS(=O)(=O)c3ccccc3C)cc2OC[C@@H](C)N(S(C)(=O)=O)C[C@H]1C | 5.4 |
| Cc1ccc(S(=O)(=O)Nc2ccc3c(c2)C(=O)N([C@@H](C)CO)C[C@@H](C)[C@@H](CN(C)Cc2ccncc2)O3)cc1 | -12.5 |

Next part.
SMILES	UUG fidelity
CC(=O)NC[C@@H]1[C@@H](c2ccc(-c3ccccc3)cc2)[C@H](CO)N1C(=O)C1CCC1	-2.9
CCC(=O)N1[C@H](CO)[C@@H](c2ccccc2)[C@@H]1CN(CC)C(=O)NC1CCCC1	1.0
Cc1ccc(-c2ccc([C@H]3[C@H](CO)N4CCCCN(C(=O)c5ccc(F)cc5)C[C@@H]34)cc2)cc1	-10.5
CCCNC(=O)C[C@@H]1C[C@@H]2c3cc(NC(=O)CC4CC4)ccc3O[C@@H]2[C@@H](CO)O1	3.3
C[C@H]1CN([C@@H](C)CO)C(=O)c2cccc(NC(=O)c3nc4ccccc4s3)c2O[C@H]1CN(C)C(=O)Nc1ccc(C(F)(F)F)cc1	6.7
COc1cccc(S(=O)(=O)N2C[C@H](O)COC[C@@H]3O[C@H](CC(=O)N4CCCCC4)CC[C@H]32)c1	8.0
C[C@@H]1CN([C@H](C)CO)C(=O)c2cccc(NS(C)(=O)=O)c2O[C@H]1CN(C)C(=O)Nc1ccc(C(F)(F)F)cc1	-7.3
CCC(=O)N1CCCCN2[C@H](C1)[C@@H](c1ccc(/C=C/c3ccccc3)cc1)[C@@H]2CO	4.8
Cc1noc(C)c1NC(=O)N(C)C[C@@H]1OCc2cnnn2CCCC(=O)N([C@H](C)CO)C[C@H]1C	-2.5
COc1ccc(CN(C)C[C@H]2Oc3c(NS(=O)(=O)c4ccc(F)cc4)cccc3C(=O)N([C@H](C)CO)C[C@H]2C)cc1	7.0
CO[C@@H]1CN(C)C(=O)c2ccc(NC(=O)C3CC3)cc2OC[C@H](C)N(CC2CCCC2)C[C@H]1C	19.5
O=C(C[C@@H]1CC[C@@H]2[C@H](COC[C@@H](O)CN2S(=O)(=O)c2ccccc2)O1)NCc1ccc2c(c1)OCO2	16.0
CO[C@@H]1CN(C)C(=O)c2ccc(NC(=O)Nc3ccccc3F)cc2OC[C@@H](C)N(C(=O)c2cnccn2)C[C@H]1C	-7.5
O=C(C[C@@H]1C[C@H]2c3cc(NC(=O)Nc4ccc(F)cc4)ccc3O[C@H]2[C@H](CO)O1)NCC(F)(F)F	0.1
Cc1ccc(S(=O)(=O)N(C)C[C@@H]2Oc3ccc(NC(=O)Nc4ccccc4)cc3CC(=O)N([C@H](C)CO)C[C@H]2C)cc1	-3.2
C[C@H]1CN([C@@H](C)CO)C(=O)c2cc(NC(=O)C3CC3)ccc2O[C@@H]1CN(C)S(=O)(=O)c1ccc(Cl)cc1	8.0
CO[C@@H]1CN(C)C(=O)c2cc(NC(=O)c3cccc(F)c3)ccc2OC[C@H](C)NC[C@H]1C	-11.7
Cc1ccc(-c2ccc([C@H]3[C@H]4CN(S(=O)(=O)c5cccc(C)c5)CCCCN4[C@H]3CO)cc2)cc1	0.3
CCNC[C@H]1[C@H](c2ccc(C3=CCCCC3)cc2)[C@@H](CO)N1C(=O)NC(C)C	2.2
CCCC(=O)Nc1ccc2c(c1)C(=O)N(C)C[C@H](OC)[C@@H](C)CN(C(=O)c1cccnc1)[C@@H](C)CO2	7.0
COc1ccccc1NC(=O)N1CCCCN2[C@H](CO)[C@@H](c3ccc(C#Cc4ccccc4)cc3)[C@H]2C1	9.4
O=C(C1CCCC1)N1CCCCN2[C@H](CO)[C@@H](c3ccc(C#CC4(O)CCCC4)cc3)[C@@H]2C1	7.6
O=C(c1ccccc1)N1C[C@H]2[C@@H](c3ccccc31)[C@H](CO)N2Cc1cc(F)ccc1F	-2.9
CN(C)C(=O)c1ccc(-c2ccc3c(c2)[C@@H]2[C@@H](CCN2C(=O)C2CCC2)[C@H](CO)N3C)cc1	15.7
C[C@@H]1CN([C@@H](C)CO)C(=O)c2cccc(NC(=O)C3CCCCC3)c2O[C@@H]1CN(C)Cc1ccc(C(F)(F)F)cc1	4.0
C[C@@H]1CN([C@@H](C)CO)C(=O)Cc2cc(N(C)C)ccc2O[C@H]1CN(C)S(=O)(=O)c1ccc(Cl)cc1	16.9
CN(C[C@@H]1N[C@H](CO)[C@H]1c1ccc(C2=CCCC2)cc1)C(=O)c1ccncc1	-3.2
CCCNC(=O)C[C@@H]1CC[C@H]2[C@@H](COc3ccc(NC(=O)c4cccc(Cl)c4)cc3C(=O)N2C)O1	3.0
C[C@@H]1CN([C@H](C)CO)C(=O)c2cccc(NC(=O)C3CCOCC3)c2O[C@H]1CN(C)Cc1ccc(C(F)(F)F)cc1	-6.4
COCC(=O)N1CCCCN2[C@@H](CO)[C@@H](c3ccc(-c4ccc(C)cc4)cc3)[C@@H]2C1	0.0
O=C(c1cccc(F)c1)N1CCCCN2[C@@H](CO)[C@H](c3ccc(-c4cccnc4)cc3)[C@@H]2C1	-16.9
CC(=O)N(C)C[C@@H]1OCc2ccccc2-c2c(n(C)c3ccccc23)C(=O)N([C@H](C)CO)C[C@H]1C	3.1
CCNC(=O)[C@@H]1[C@@H](CO)[C@@H]2Cn3c(ccc(-c4cncnc4)c3=O)[C@H]1N2C(=O)Nc1ccccc1	0.9
O=C(Nc1cccc(F)c1)N1CCCCN2[C@H](C1)[C@@H](c1ccc(-c3ccncc3)cc1)[C@@H]2CO	-9.9
CO[C@@H]1CN(C)C(=O)c2cc(NC(=O)C3CCCC3)ccc2OC[C@@H](C)N(CC2CC2)C[C@@H]1C	-9.6
O=C(CN1CCOCC1)N1CCCCN2[C@H](CO)[C@@H](c3ccc(/C=C/c4ccccc4)cc3)[C@@H]2C1	-5.3
CCN(C[C@H]1[C@@H](c2ccccc2)[C@H](CO)N1C(C)=O)C(=O)c1ccccn1	-2.8

These rows are one share of the data (hit frequency here may not be typical).
